Rce1 inh = blocks yeast Ras-converting enzyme. AID 2563. 290,000 tested, 0.27% active. yeast membranes, quenched prenylated peptide cleavage fluorescence. calls only. Q03530;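 active = fall in fluorescence gain of 50% or more versus controls, with final raw signal at or below 3038400; inconclusive = same 50% fall but final raw signal above 3038400; inactive = fall in fluorescence gain under 50%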;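 note: plate controls were neutral control wells for no effect and wells lacking membranes for full effect; tested at 10 µM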
Target sequence (Q03530 whole entry, looked up): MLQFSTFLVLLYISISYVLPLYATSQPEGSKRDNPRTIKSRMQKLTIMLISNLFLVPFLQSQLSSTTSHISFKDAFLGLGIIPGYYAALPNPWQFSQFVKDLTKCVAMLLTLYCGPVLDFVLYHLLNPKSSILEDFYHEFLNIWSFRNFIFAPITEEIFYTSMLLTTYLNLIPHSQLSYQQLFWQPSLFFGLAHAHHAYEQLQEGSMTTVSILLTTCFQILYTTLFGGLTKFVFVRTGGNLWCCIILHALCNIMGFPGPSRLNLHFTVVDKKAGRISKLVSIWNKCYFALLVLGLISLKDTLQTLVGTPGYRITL
Env fusion inh = inhibitors of HIV Env-mediated cell fusion; HeLa-JRFL Env/CEM21 cell fusion, luciferase; inhibition, % at 12.3 µM; 360,000 tested, 1.1% active;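 active = mean replicate inhibition score of at least 50 and every replicate individually at or above 50; inconclusive = only one of the two criteria met; inactive = mean below 50 and not all replicates reaching 50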;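 note: 0% = plate neutral controls and 100% = maraviroc near 300 nM; one replicate is shown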
Yeast UUG start = yeast start codon fidelity modulation; 350,000 tested, 0.13% active; S. cerevisiae UUG-firefly luciferase reporter, luminescence/redox ratio; activity score, % at 18.7 µM;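 active = replicate mean at a twofold rise or more, about +100% in these data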;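 note: firefly luciferase made from a UUG start codon reports start codon fidelity; reporter light over untreated wells divided by growth signal over untreated wells; some hits fall short of that in this replicate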
eIF4H FP inh = inhibitors of RNA binding by human eIF4H; Q15056; eIF4H fluorescence polarization binding assay; inhibition, % at 35 µM; 290,000 tested, 0.94% active; AID 2012;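 active = 50% or more with normal probe brightness, or confirmed in later tests; inconclusive = above 50% with abnormal brightness, or retests that disagree; inactive = below 50% or failed in later tests; about a fifth of its hits are not listed in these tables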;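 note: calls also rest on retests at 20 µM and on dose response follow-up; 0% = protein and probe with vehicle and 100% = probe without protein; strong numbers were not always called active; many hits fall short of the cut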
CSC inhib = cancer stem cell inhibition | cancer stem cell-like cells viability, luminescence | inhibition, % at 7.5 µM | 300,000 tested, 1.1% active;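 active = mean at 75% or more and at least half the replicates too; inconclusive = mean and replicates disagree; tested in HMLE shEcad cells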;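 note: 0% = median of negative and 100% = median of positive control wells; the first replicate is given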
PABP FP inh = blocks human PABP binding to poly(A) RNA; P11940; fluorescence polarization; inhibition, % at 35 µM; 290,000 tested, 1% active; AID 2014;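 active = 50% or more with normal probe brightness, or confirmed in later tests; inconclusive = above 50% with abnormal brightness, or retests that disagree; inactive = below 50% or failed in later tests; about a fifth of its hits are not listed in these tables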;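 note: calls also rest on retests at 20 µM and on dose response follow-up; controls were probe without protein and protein plus probe with vehicle; some compounds called inactive have numbers as strong as hits; many hits fall short of the cut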
MT1-MMP act inh = blocks activation of human MT1-MMP. P50281. HT1080 RFP-PRO-GFP cells, GFP/RFP ratio fluorescence, overnight; percent of plate control window, DMSO zero. GFP/RFP ratio change, % at 20 µM. 360,000 tested, 0.061% active;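 active = GFP/RFP ratio change of at least 30% with cell ATP level not reduced by more than half and red fluorescence within 50% of control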; note: strong numbers were not always called active
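Test system: HT1080 RFP-PRO-GFP cells; Benchmarks: DMSO and RFP-L50D-GFP cell wells; Timing: cells overnight before dosing, compound overnight, 37 °C, 5% CO2; Compound: one 20 µM compound dose with 1% DMSO; Read-out: GFP/RFP fluorescence ratio.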
MT1-MMP act inh RFP = further read-out of MT1-MMP act inh, marked with its call; RFP signal change, %; measured here: RFP expression control read;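 0 = vehicle wells; hits needed this value within 50% of zero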
Active calls of the source: *; i = inactive; ? = inconclusive; · = no result given; & = joins results of further samples; [ ] = another dose, or the depositor's remark.

Under each structure – Yeast UUG start	PABP FP inh	Rce1 inh	CSC inhib	MT1-MMP act inh RFP	eIF4H FP inh	Env fusion inh	MT1-MMP act inh
COc1ccc([C@@H]2[C@@H]3C(=O)N(C(C)(C)C)C(=O)[C@@H]3[C@]3(C)C(=O)N(c4ccccc4)C(=O)N23)cc1
    -6.6	6.7	i	-9.6	-2.2	0.7	25.8	-10.6
Cc1ccc(N2CC(C(=O)Nc3cccnc3)CC2=O)cc1 (centres undefined)
    -11.7	-1.8	i	-1.5	7.4	3.7	-21.8	7.8
Cc1ccc(NC(=O)CN(c2cc(C)cc(C)c2)S(=O)(=O)c2c(C)noc2C)nc1
    0.7	-9.0	i	-1.4	-10.9	-10.9	-51.6	-10.6
NC(=O)c1ccc[n+](Cc2ccc(-c3ccccc3)cc2)c1
    -3.8	1.6	i	14.2	-0.4	-5.2	-2.8	-0.5
CN(C(=O)CCN1C(=O)S/C(=C\c2ccccc2)C1=O)C1CCS(=O)(=O)C1 (centres undefined)
    -9.3	6.9	i	-16.4	-2.5	-2.5	0.1	-1.1
CCn1c(SCC(=O)N2CCCc3ccccc32)nnc1-c1cccs1
    -26.4	0.5	i	-9.3	-3.2	-5.7	-0.8	1.8
C=CCOc1ccc(C2C(C(=O)c3ccc(C)o3)=C(O)C(=O)N2Cc2cccnc2)cc1 (centres undefined)
    -5.2	16.3	i	6.5	-0.9	-5.1	4.9	0.3
COc1ccc(NC(=O)C2CC(=O)N(c3ccccc3Cl)C2)c(OC)c1 (centres undefined)
    -5.6	-4.1	i	·	-3.0	-9.6	23.4	-0.5
O=C(Cn1c(=O)cnc2ccccc21)Nc1cc(Cl)ccc1N1CCOCC1
    11.7	·	·	-7.5	-1.0	·	5.0	-9.8
COC(=O)c1cc(S(=O)(=O)Nc2cccc(OC)c2)cn1C
    -25.1	-4.7	i	-8.1	-12.5	-1.5	6.8	-1.6
Brc1ccc(C2Nc3cccc4cccc(c34)N2)cc1
    -17.3	·	·	·	4.4	·	-6.6	-4.1
CC(C)(C)OC(=O)N1CCCC(C(=O)Nc2ccc(C(=O)N3CCOCC3)cc2)C1 (centres undefined)
    2.1	·	·	-10.4	0.5	·	-22.1	1.3
CCN(CC(=O)Nc1ccc(NC(C)=O)cc1)C(=O)c1cccc(Oc2ccccc2)c1
    -4.8	·	i	-3.4	-0.4	·	3.6	-0.8
COc1ccc(-c2cc(C(=O)Nc3ccc(S(=O)(=O)Nc4ncccn4)cc3)c3ccccc3n2)cc1
    -15.2	-8.0	·	4.2	-4.6	2.6	15.1	6.3
COc1ccccc1C(=O)Nc1cccc(Oc2c(F)c(F)c(F)c(F)c2F)c1
    -11.7	-7.6	i	9.0	-3.2	-1.6	10.0	2.6
O=C(Nc1ccccn1)c1ccco1
    -24.4	-2.5	i	-0.5	2.9	0.3	·	-0.5
COc1ccccc1NC(=O)/C(C#N)=C/c1c(C)nn(-c2ccc(F)cc2)c1Cl
    ·	-0.1	i	-2.6	-4.5	-12.3	15.7	-3.7
Cc1ccc(C(=O)COC(=O)CN2C(=O)C3CC=CCC3C2=O)cc1[N+](=O)[O-] (centres undefined)
    25.0	-1.1	i	5.0	0.6	7.7	-12.2	-0.9
CCOc1cc(/C=N/NC(=S)Nc2ccccc2C(F)(F)F)ccc1OCC(=O)N1CCOCC1
    ·	-10.7	i	-35.1	-6.5	2.4	32.1	0.0
Cc1cc(NC(=O)c2cc3n(n2)C(C(F)(F)F)CC(c2ccco2)N3)n(-c2ccccc2)n1 (centres undefined)
    ·	-2.8	i	-1.9	-3.8	4.7	·	-3.5
Cc1ccccc1NS(=O)(=O)c1ccc(C(=O)N2CCCC2)cc1
    -15.9	·	i	-4.8	-2.8	·	8.4	-0.2
Cc1ccc(S(=O)(=O)N[C@H](C(=O)OCC(=O)NC(=O)C2CCCCC2)C(C)C)cc1
    -3.1	·	·	-6.9	4.9	·	14.3	1.3
Cc1onc(-c2c(Cl)cccc2Cl)c1C(=O)Nc1ccc(N2CCOCC2)cc1
    -7.9	5.7	i	-11.6	-1.6	-2.1	4.4	-2.5
C[C@H]1CN([C@@H](C)CO)C(=O)CCCn2cc(nn2)CO[C@@H]1CN(C)C(=O)Nc1ccc(N2CCN(C)CC2)cc1
    4.5&-8.4	·	·	·	1.6	·	-7.2	3.4
COc1ccc(/C=C/C(=O)OCC(=O)N2c3ccccc3CC2C)c(OC)c1 (centres undefined)
    -13.5	·	·	·	0.0	·	-18.9	-1.4
C[C@H](CO)N1C[C@H](C)[C@@H](CN(C)Cc2cncnc2)Oc2cc(Br)ccc2S1(=O)=O
    -7.7&26.5&10.2	·	·	·	5.8	·	6.5&6.4[16.7 µM]	2.2
CC1=C(C(=O)OCCOC(C)C)C(c2cccc3ccccc23)NC(=O)N1 (centres undefined)
    12.1	·	i	-8.8	-4.4	·	5.2	1.9
O=C(Nc1ccc2c(c1)ncn2C1CCCCC1)c1ccco1
    -16.3	-4.6	i	-6.5	4.7	-1.7	-77.7	4.2
Cc1ccc(C(=O)CCC(=O)Nc2cccnc2)cc1C
    -12.2	-13.7	i	-17.7	-0.2	-2.7	25.1	-2.7
CCOc1ccc(C(=O)OCC(=O)N2CCCC2)cc1OCC
    -11.8	10.8	i	-14.5	-0.6	5.1	-20.4	-0.9
CCC/C(O)=C1\C(=O)CC(c2ccccc2)CC1=NCCc1c(C)[nH]c2ccc(C)cc12 (centres undefined)
    -5.7	-4.3	i	-2.8	-12.1	-10.4	-2.0	-12.0
O=c1c2ccccc2oc2cc(NCCCN3CCOCC3)ccc12
    -15.5	10.5	?	23.0	-3.6	-2.3	-111.4	0.4
O=C(NC(=S)Nc1ccccc1Br)c1cccnc1
    -3.4	-6.7	i	0.9	-4.0	-6.4	-1.5	-1.0
Cc1ccc(S(=O)(=O)Oc2cc(N)c3c(n2)CCC3)cc1
    -20.3	5.0	i	-14.0	1.5	-1.2	-9.4	2.2
O=C(N/N=C/c1ccc(OC(=O)c2cccs2)cc1)c1cccc(F)c1
    -10.2	-2.8	i	-6.3	8.5	-5.0	·	5.1
CN(C)S(=O)(=O)c1cccc(NC(=O)COC(=O)c2cc(=O)c3ccccc3o2)c1
    -19.0	-7.0	i	-5.8	9.5	-4.9	-15.1	-1.1
CN1CCN(C(=O)c2cc3nc(-c4ccco4)cc(C(F)(F)F)n3n2)CC1
    ·	0.4	i	-8.1	0.0	-1.6	19.6	4.5
CN(C)c1ccc(-n2cccc2/C=C2/SC(=Nc3ccc(F)cc3)NC2=O)cc1
    -10.4	-7.4	i	6.9	4.8	-9.4	·	-1.2
O=C1CN(S(=O)(=O)c2ccccc2)CCN1S(=O)(=O)c1ccccc1
    ·	7.9	i	-8.2	5.5	-7.8	8.8	3.4
Cc1cccc(C(=O)Nc2ccc(N3CCN(S(C)(=O)=O)CC3)cc2)c1
    ·	6.0	i	-6.2	·	-1.7	-5.1	·
CC(C)(C)c1ccc(C(=O)NCc2ccccc2)cc1
    ·	49.4	i	-20.7	0.8	-0.3	-14.3	1.0
CC(=O)c1cc(-c2ccccc2)n(CC(=O)Nc2cccc(C)c2C)c1C
    ·	-4.0	i	-2.2	-1.7	-3.3	-3.9	0.0
COc1cc(OC)c(C(=O)Nc2ccc3ccccc3c2)cc1OC
    -17.1	1.0	i	-2.3	-3.4	-12.5	·	6.7
Cc1n[nH]c(C)c1S(=O)(=O)N1CCN(S(=O)(=O)c2ccccc2C#N)CC1
    -10.1	·	·	·	1.3	·	-0.8	0.4
COc1cccc(/C(C)=N/Nc2ncc(Cl)cc2Cl)c1
    ·	-2.8	i	24.2	2.8	3.9	·	-6.5
CCOc1ccc(C(C)=O)cc1Cc1c(O)nc(N)[nH]c1=O
    ·	-1.3	i	-1.6	·	-6.8	-9.4	·
O=C(N=Nc1c(O)[nH]c2ccccc12)c1ccccc1NS(=O)(=O)c1cccs1
    ·	2.3	i	0.7	-4.4	-3.4	-17.6	1.5
Cc1cc(C)c2nc(SCC(=O)NC(=O)c3cccn3C)cc(C)c2c1
    ·	25.0	i	-19.1	-1.1	-2.7	9.4	2.6
CC1CCCCN1C(=O)CCNC(=O)Cn1cnc2ccccc2c1=O (centres undefined)
    1.0	4.8	i	-3.5	0.2	-8.4	-2.6	1.3
Cc1cc(N2CCCCC2)nc2c(C)cccc12
    ·	-6.8	i	-2.4	1.2	0.1	-20.9	-2.0
COCC(=O)N1CCC(Oc2ccc(C(=O)N3C[C@@H]4CCC[C@H]3C4)cc2)CC1
    -9.7	0.6	i	·	1.2	0.3	-5.2	1.4
O=C(O)c1nc(Cl)c(Cl)c(N/N=C/c2ccccc2C(F)(F)F)c1Cl
    -6.0	10.5	i	27.9	1.3	1.3	-1.9	-1.7
COc1cc(CNCc2ccc(OC)c3ccccc23)cc(OC)c1OC
    -20.3	-7.4	i	-8.8	-13.7	6.0	99.1*	6.8
C[C@@H]1CCC[C@H](C)N1Cc1nc(Cc2ccccc2Cl)no1
    28.6	-6.3	i	-11.0	0.1	-2.1	18.2	3.5
CCOC(=O)c1c(C)[nH]c(C)c1S(=O)(=O)NCCN1CCN(c2cc(Cl)ccc2C)CC1
    -2.8	-2.3	i	5.4	-17.1	-10.4	?	-9.5
COc1ccc2cc(-c3cc(C(=O)OCC(=O)Nc4c(C)n(C)n(-c5ccccc5)c4=O)c4ccccc4n3)ccc2c1
    -11.0	0.7	i	·	-5.3	3.9	-72.4	-1.5
OC(COc1ccc2c(c1)CCC2)CN1CCN(c2ccccc2F)CC1 (centres undefined)
    -12.5	-9.9	i	-9.1	7.8	-4.3	·	3.1
COC(=O)CC#N
    -13.6	·	·	-2.6	6.1	·	·	0.0
CN(C)c1ccc(S(=O)(=O)NCC(=O)N2CCN(c3ccccc3)CC2)cc1[N+](=O)[O-]
    13.9	·	i	-7.0	1.9	·	-2.1	7.3
CCCCOc1ccccc1C1NC(=O)NC(C)=C1C(=O)OCCOCC (centres undefined)
    -0.5	-10.0	i	-9.9	-4.0	-9.7	·	-2.4
COc1cccc(-c2ncc3ccccc3c2COC(=O)c2ccco2)c1
    2.7	·	·	-13.3	-1.1	·	-12.0	7.0
O=C(N/N=C\c1cc(Br)c(Br)o1)C1COc2ccccc2O1 (centres undefined)
    ·	-1.4	i	-7.4	-4.1	0.3	-21.1	-1.9

From PubChem BioAssay

An excerpt; count on the stated rates, not on these rows.
